# Assay outcomes (PubChem)
# Rango release inh – inhibition of RanGTP-driven Rango-importin beta dissociation; O95149+P62826; Biochemical FRET Rango-importin beta, RanGTP-induced dissociation; Potency, µM (titrated, usually from 46.1 µM), inactives show top-dose activity change, negative = inhibition; hit rate 0.071% among 340,000; AID 540253; active means falling FRET ratio curve, often poorly fitted, with flat reads before Ran was added; inconclusive means other falling curves, or compound fluorescence or quenching; inactive means flat or rising ratio curve;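 further: potency means the concentration at half of the fitted maximal effect; % of control where 0% means no effect; nearly all actives have a fitted effect of over 45% in size; -100% = wells without RanGTP and RCC1; the record marks most hits as doubtful in a second field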
#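 Two FRET readings bracket the reaction: one 5 min after compound meets Rango–importin beta, another 45 min after RanGTP-RCC1 (0.6 uM Ran, 0.2 uM RCC1, 2 mM GTP) is added. Only the second defines inhibition.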
# GLA inh pH 4.5 – blocks human alpha-galactosidase A at pH 4.5 | P06280 | purified enzyme, 4-MU-alpha-Gal fluorescence, pH 4.5 | activity change, negative = inhibition, % at 105 µM | 230,000 tested, under 10 active | AID 1467; inconclusive = small, poorly fitted or top-dose-only inhibition, or a rising curve; inactive = flat fitted curve, though single readings scatter; no compound was filed as active;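 further: 0% = full activity with enzyme and -100% = basal without enzyme; dose as in the result columns while the protocol names 77 µM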
# miR-21 FLuc – miR-21 reporter, rising signal; HeLa miR-21 FLuc reporter, luciferase, 48 h; Potency, µM (highest dose often 38.3 µM), inactives show at the highest dose reporter change, positive = more light; 340,000 tested, under 10 active; active = well fitted rising curve with a large enough effect; inconclusive = small, poorly fitted or top-dose-only effect; inactive = no such curve, though single readings can be large or run the other way;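 further: % of control where 0% means no effect; miR-21 action dims this reporter so a rising signal means less miR-21 action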
#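 HeLa cells stably expressing CMV-driven firefly luciferase with a downstream miR-21 binding sequence, endogenously expressing miR-21, were treated with titrations (up to about 40uM final) for 48 hours at 37 degree Celsius. Luciferase luminescence was read after lysis.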
# Rango complex inh – prevents formation of the Rango-importin beta complex; hit rate 0.031% among 340,000; Rango CFP/YFP FRET sensor + importin beta, 45 min; Potency, µM (titrated, usually from 92.2 µM), for the others: at the top dose inhibition of complex formation; Q14974; active = rising FRET ratio curve, often small or poorly fitted; inconclusive = mostly compound fluorescence or quenching in the first reads; inactive = flat curves in all reads;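 further: potency means the concentration at half of the fitted maximal effect; 0% = DMSO wells and 100% = buffer wells lacking importin beta; nearly all actives have a fitted effect of over 15% in size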
# Target sequence (Q14974 whole entry, looked up): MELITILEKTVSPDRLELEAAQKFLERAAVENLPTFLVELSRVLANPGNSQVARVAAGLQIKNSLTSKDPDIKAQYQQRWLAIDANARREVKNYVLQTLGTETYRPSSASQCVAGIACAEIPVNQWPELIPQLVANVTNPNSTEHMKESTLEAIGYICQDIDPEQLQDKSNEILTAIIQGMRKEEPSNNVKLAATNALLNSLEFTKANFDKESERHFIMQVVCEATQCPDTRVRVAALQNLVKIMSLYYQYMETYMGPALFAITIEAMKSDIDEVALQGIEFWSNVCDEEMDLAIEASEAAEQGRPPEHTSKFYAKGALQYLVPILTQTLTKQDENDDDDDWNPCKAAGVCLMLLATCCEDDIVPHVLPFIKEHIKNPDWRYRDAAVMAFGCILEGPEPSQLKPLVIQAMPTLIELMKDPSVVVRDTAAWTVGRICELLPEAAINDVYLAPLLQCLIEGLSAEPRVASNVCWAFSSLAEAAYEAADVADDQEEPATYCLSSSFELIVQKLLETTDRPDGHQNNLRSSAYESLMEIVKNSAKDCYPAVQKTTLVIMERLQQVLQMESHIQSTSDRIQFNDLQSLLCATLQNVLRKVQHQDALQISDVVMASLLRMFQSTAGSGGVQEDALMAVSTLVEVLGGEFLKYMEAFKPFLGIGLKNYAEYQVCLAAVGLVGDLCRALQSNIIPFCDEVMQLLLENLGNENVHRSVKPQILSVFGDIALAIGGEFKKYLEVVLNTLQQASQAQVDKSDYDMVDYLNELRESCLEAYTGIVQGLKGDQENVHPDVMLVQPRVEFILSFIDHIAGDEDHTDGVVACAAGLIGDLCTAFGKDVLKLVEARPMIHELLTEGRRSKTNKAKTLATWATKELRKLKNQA
#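 FRET biosensor Rango (snurportin 1 IBB between N-terminal EYFP and C-terminal Cerulean), 50 nM in PBS/1 mM DTT/0.02% Tween-20/0.1% BSA, preincubated 5 min RT with compound; 0.125 microM importin beta added, 45 min RT, CFP/YFP FRET ratio read.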
# Starred values were filed as active, the others as inactive; ? = inconclusive; · = not tested or not shown; [ ] = another dose, or the depositor's remark. Only part of the results is shown; the hit share may differ from the screen's.
SMILES,Rango release inh,GLA inh pH 4.5,miR-21 FLuc,Rango complex inh
CCSc1ncc(Cl)c(C(=O)Nc2ccccc2F)n1,5.9%,·,2.0%,0.4%
O=S(=O)(Nc1cccc(-c2ccc3nncn3n2)c1)c1cccs1,-6.8%,-3.1,0.1%,-2.1%
CC(=O)NC(NC(=S)Nc1ccc(S(N)(=O)=O)cc1)C(Cl)(Cl)Cl (configuration not stated),-8.3%,8.8,2.3%,3.7%
CC(C)C(NS(=O)(=O)c1ccccc1F)C(=O)N1CCc2ccccc2C1 (configuration not stated),-1.9%,·,0.2%,-0.4%
O=S(=O)(CCc1ccccc1)N1CCOCC1,-17.8%,7.0,-5.3%,-3.2%
Cc1ccc(N2CCN(CC(=O)Nc3c(C(=O)C4CC4)oc4ccccc34)CC2)cc1,·,-2.0,1.2%,·
CCCN(c1ccc(C)cc1)c1nc(=O)c2cccnc2s1,12.6%,-5.5,1.6%,-1.5%
COc1ccc(CNC(=O)COC(=O)c2cc(-c3cccs3)nc3ccccc23)cc1OC,-18.8%,9.3,-5.4%,?
C=CCNC(=S)Nc1cc(C)ccn1,0.3%,-7.7[21.1 µM],-1.6%,-0.5%
Cc1nn2c(=O)cc(COC(=O)c3ccc(S(=O)(=O)N4CCCCC4)cc3)nc2s1,0.8%,-5.5,2.3%,-7.2%
COn1c(SCC(N)=O)nc2ccccc2c1=O,13.4%,0.6,-2.0%,0.0%
COC(=O)c1csc(S(=O)(=O)N2CCCCC2)c1OC,-4.6%,-3.3,-9.7%,-0.1%
COc1ccc(NC(=S)NC(=O)/C=C/c2ccc(F)cc2)cc1,-10.3%,·,-2.4%,-0.3%
COc1ccc(CCNC(=O)COC(=O)C2CC2)cc1,4.9%,1.8,0.0%,-3.0%
CC1(C)COC(c2ccc3c(c2)OCO3)OC1,-3.6%,·,·,0.3%
CC(=O)Nc1cc(NC(C)=O)cc(C(=O)OC(C)C(=O)Nc2ccc(S(=O)(=O)N3CCCC3)cc2)c1 (configuration not stated),4.1%,·,·,-5.1%
CN(C)S(=O)(=O)c1ccc(NC(=O)CN2CCOCC2)cc1,-2.7%,9.1,-1.3%,0.2%
C/C(CC(=O)Nc1cccc(Cl)c1Cl)=N\NC(=O)C(=O)NC1CCCCC1,?,·,-4.1%,-4.8%
COc1cc(N)c(C(O)c2nccc3cc(OC)c(OC)cc23)cc1OC (configuration not stated),-10.2%,·,-7.5%,0.9%
O=C(CCn1c(=O)[nH]c2ccccc2c1=O)N1CCN(c2cccc(C(F)(F)F)c2)CC1,4.6%,-3.8,-0.6%,0.3%
COc1ccc(C2/C=C\CN(C(=O)C3CC3)[C@H](Cc3ccccc3)C(=O)N2Cc2ccc(F)cc2)cc1 (some centres not stated),0.8%,-6.8,28.4%,-0.5%
Cc1[nH]c2ccccc2c1C(=O)CSC(=S)N(C)C,-13.4%,1.2,-58.1%,-1.6%
O=C1CSC(=Nc2ccc(O)cc2)N1c1ccc(O)cc1,2.7%,-1.5,0.1%,-1.3%
Cc1ccc(-n2ncc3c(NNC(=O)c4ccco4)ncnc32)c(C)c1,-8.3%,-4.4,-2.6%,0.1%
CC(=O)c1nc(N2C(=O)CC(Cc3cccc(C)c3)C2=O)sc1C (configuration not stated),3.0%,-20.4,-2.2%,0.5%
CC1(C)OC(=O)N(c2ccccn2)C1(C)O (configuration not stated),22.3%,-18.8,-4.0%,4.7%
Cc1ccc(S(=O)(=O)N2CCC(C(=O)Nc3nnc(C45CC6CC(CC(C6)C4)C5)s3)CC2)cc1,·,3.5,-2.0%,·
Cc1cccc(NC(=O)c2sc(NC(=O)c3ccco3)c(C#N)c2C)c1C,?,-2.1,-4.9%,0.9%
Cc1ccc(OCCCn2ccnc2)c([N+](=O)[O-])c1,11.0%,1.8,-16.6%,4.2%
COc1ccc(CN(C(=O)CSc2nnc(-c3ccc(F)cc3)o2)c2ccc(F)cc2)cc1,0.8%,-6.1,-2.4%,2.6%

# 3 of the entries above in order of the Rango release inh value, rising.
SMILES,Rango release inh,GLA inh pH 4.5,miR-21 FLuc,Rango complex inh
O=S(=O)(CCc1ccccc1)N1CCOCC1,-17.8%,7.0,-5.3%,-3.2%
Cc1[nH]c2ccccc2c1C(=O)CSC(=S)N(C)C,-13.4%,1.2,-58.1%,-1.6%
COn1c(SCC(N)=O)nc2ccccc2c1=O,13.4%,0.6,-2.0%,0.0%

# Carrying on:
SMILES,Rango release inh,GLA inh pH 4.5,miR-21 FLuc,Rango complex inh
COc1ccc(/C(=N\Nc2ccccc2C(=O)O)c2ccccc2)cc1,-10.1%,-16.5,-13.3%,-0.5%
COc1cc(OC)cc(C(=O)/C=C2\Sc3ccccc3N2C)c1,-4.4%,-5.2,-43.9%,?
CC1CC(C)CN(C(=O)C2CC(=O)N(c3ccc(F)cc3)C2)C1 (configuration not stated),-9.3%,·,3.2%,0.5%
Cc1ccc(S(=O)(=O)N(CC(=O)NCC2CCCO2)c2cccc([N+](=O)[O-])c2)cc1 (configuration not stated),0.5%,-0.6,0.5%,-2.4%
COc1cc(CN2CCCCCC2)cc([N+](=O)[O-])c1O,17.9%,·,-1.4%,-1.6%
CC12CCC(=O)N1C(C(=O)O)Cc1c2[nH]c2ccccc12 (configuration not stated),1.8%,6.9,1.5%,-4.0%
Nc1c(C(=O)O)sc2nc(-c3ccccc3)cc(-c3ccccc3)c12,?,0.0,0.5%,?
O=C(NCc1ccco1)c1cc2cc3ccc(Cl)cc3nc2o1,?,-7.3,-14.3%,-3.5%
Cc1ccc(C2(C)NC(=O)N(CC(=O)Nc3cc(S(=O)(=O)N4CCOCC4)ccc3C)C2=O)cc1 (configuration not stated),-7.8%,-0.6,-0.7%,-3.2%
COc1ccc(C(=Cc2ccccc2)C(=O)O)cc1,30.2%,·,·,1.5%
CCN(CC)c1ccc2cc(-c3nnc(-c4ccccc4)o3)c(=O)oc2c1,?,8.8,-59.3%,?
Cc1cc(C(=O)Nc2nc3c(C)cccc3s2)c(C)o1,-1.0%,-2.6,-16.9%,0.5%
CCN(CC)S(=O)(=O)c1cccc(C(=O)OCC(=O)c2ccc3c(c2)NC(=O)CO3)c1,8.6%,-6.3,0.7%,1.0%
O=C(O)CSCC(=O)Nc1ccc(Br)c(C(F)(F)F)c1,1.0%,5.7,1.9%,4.9%
CCN1CCN(S(=O)(=O)c2cc(C(=O)O)ccc2Cl)CC1,-5.5%,-0.9,-2.4%,0.0%
CCOP(=O)(OCC)C(Nc1ccccc1)c1cc(OC)ccc1OC (configuration not stated),-9.5%,-9.7,-5.9%,3.7%
O=C(N/N=C/c1ccncc1)c1cc2ccccc2o1,-4.7%,-17.5,-5.9%,-0.8%
CC(C)(C)OC(=O)[C@H]1[C@H](c2ccc([N+](=O)[O-])cc2)C2(C(=O)c3ccccc3C2=O)C2c3ccccc3C=NN21 (some centres not stated),1.3%,-13.5,21.2%,0.0%
O=C(Nc1ccc(-c2nc3ncccc3o2)cc1)c1ccc(Br)o1,-17.3%,5.7,-28.5%,0.3%
O=C(NC1CC(=O)N(c2cccc(F)c2)C1)N1CCN(C(=O)c2ccco2)CC1 (configuration not stated),0.0%,·,·,2.2%
CCn1c(O)c(C=NC2CCCC2)sc1=S,-4.5%,-1.0,-33.0%,-2.4%
Cc1cccc(C(C)C)c1NC(=O)CSc1cccc[n+]1[O-],20.8%,·,·,?
Cc1ccccc1NC(=O)Cc1nnc(SCC(=O)Nc2ccccc2)n1C,-1.9%,2.2,-4.7%,0.3%
COC(=O)c1c(NC(=O)COC(=O)CC(NC(C)=O)c2ccccc2)sc(C)c1C (configuration not stated),7.9%,·,·,-0.6%
CN1C[C@@H]2C[C@@H](c3cccn3-c3nccs3)N3CCC[C@@]23C1=O,-2.7%,1.8,0.7%,-1.3%
Cc1cc(C)c(NC(=O)C[N+](C)(C)CC(O)COc2cccc3ccccc23)c(C)c1 (configuration not stated),-10.5%,-0.6,-19.4%,2.1%
c1ccc2c(c1)OCCOCCOCCOCCOCCOc1ccccc1OCCOCCOCCO2,4.5%,4.8,?,0.2%
CCOc1ccc(NC(=O)c2cc(=O)[nH]c3ccccc23)cc1,0.4%,·,-7.3%,4.4%
O=C(NCc1ccccc1)C1c2ccccc2Oc2ccccc21,-0.4%,3.1,-2.0%,-0.1%
COc1ccc(S(=O)(=O)NCCC(C)C)cc1OC,15.6%,-4.8,-5.3%,-3.3%
Cc1cc(=S)cc(C)n1CCCn1ccnc1,-11.6%,3.5,-0.9%,-0.7%
COC(=O)C(/C=N/OCc1ccc([N+](=O)[O-])cc1)NC(=O)c1cccc(Cl)c1 (configuration not stated),11.5%,-24.8,-2.3%,-0.3%
NS(=O)(=O)c1ccc(CCNC(=O)c2ccc(Cl)c(S(=O)(=O)N3CCCCC3)c2)cc1,-6.9%,·,·,-4.3%
CC(NC(=O)CCn1nc(-c2ccc(Cl)cc2)ccc1=O)c1ccccc1 (configuration not stated),5.1%,5.2,0.7%,-0.4%
COc1ccccc1CNC(=O)C1CCC(CNS(=O)(=O)c2ccc(NC(C)=O)cc2)CC1 (configuration not stated),-11.4%,·,-5.8%,?
CC1=CC(=O)C=C/C1=C(/c1ccc(O)cc1C)c1ccccc1S(=O)(=O)O,-11.9%,·,·,6.9%
Cc1[nH]n2c(=O)c(C#N)c(-c3ccccc3)nc2c1-c1ccccc1,1.4%,-0.7,-0.7%,3.1%
CC(=O)Nc1cccc(NC(=O)CSc2ccc(C(F)(F)F)cc2[N+](=O)[O-])c1,9.1%,-4.2,-18.6%,3.4%
CCOC(=O)c1cn(Cc2cccc(Cl)c2)c2cc(C)nn2c1=O,-8.3%,-6.5,-8.2%,1.6%
CCOc1ccc(C(=O)CCc2nc3ccccc3s2)cc1,-5.1%,7.1,-18.1%,-3.1%
COC(=O)CC(N)c1ccc(OC)c2ccccc12 (configuration not stated),-14.4%,2.3,0.3%,6.3%
Cc1cc(Br)cc(C)c1OCC(=O)NNC(=O)CCC(=O)NCc1ccccc1,-12.9%,-1.7,0.9%,-4.1%
CC1=C(C(=O)Nc2ccccc2C)C(c2ccccc2)NC(=O)N1 (configuration not stated),-15.2%,-5.1,2.7%,0.0%
COc1ccc(NC(=O)c2ccc3nc(C)sc3c2)cc1,-2.0%,·,-44.4%,3.7%
N#CC(C#N)=Cc1cn(-c2ncc(C(F)(F)F)cc2Cl)c2ccccc12,5.6%,-14.3,12.3%,-1.3%
C/C(=N\NS(=O)(=O)c1ccc([N+](=O)[O-])cc1)c1ccc2c(c1)OCO2,-10.9%,·,-3.2%,3.3%
CCNC(=O)C(=O)N/N=C/c1cc([N+](=O)[O-])ccc1O,20.0%,-2.4,-0.5%,-3.2%
CC(CCCC(C)(C)O)NC(=O)c1cc(COc2ccc3ncccc3c2)on1 (configuration not stated),0.5%,3.9,17.2%,-3.8%
COc1ccc(C(=O)CCC(=O)Nc2cccc(Cl)c2)cc1,1.5%,-13.3,-2.1%,3.7%
CC(C)Cc1nc2oc3c(Cl)ncnc3c2c2c1CCC2,20.8%,1.3,-0.9%,1.5%
O=C(NCCc1c[nH]c2ccccc12)N[C@@H](Cc1ccccc1)C(=O)O,-5.7%,·,-3.7%,-1.5%
CC(C)CCN1CCN(Cc2cccn2-c2cccnc2)CC1CCO (configuration not stated),-13.9%,-5.2,-0.5%,2.0%
O=C(NN1C(=O)/C(=C/c2ccc(O)cc2)SC1=S)c1ccccc1O,14.6%,·,-6.0%,?
OCCNc1ncnc2c1ncn2Cc1ccccc1,3.3%,0.7,-0.4%,-0.5%
CCOC(=O)/C(O)=C(\C#N)c1nc2ccccc2[nH]1,?,-2.8,-5.4%,?
CCOC(=O)C1CCN(S(=O)(=O)c2cccc(C(=O)Nc3ccccc3)c2)CC1,12.5%,·,1.8%,0.6%
COc1ccc(CNS(=O)(=O)c2ccc(F)c(C(=O)Nc3ccc(OC)cc3)c2)cc1,30.0%,-20.5,-1.5%,-0.3%
Cc1ccc(C(=O)NC(=S)Nc2ccccc2C(F)(F)F)c(C)c1,2.4%,-4.4,0.1%,-2.5%
CCOC(=O)c1sc(S(C)(=O)=O)c2c1CC(C)(C)C/C2=N/O,-19.3%,3.5,0.1%,-2.5%
